# Compound activity deposited in PubChem by several laboratories.
# Arbovirus anti: blocks arbovirus infection; arbovirus infection cell-based antiviral screen; inhibition, % at 10 µM; 200,000 compounds, 0.37% hits; AID 1251;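 active = inhibition from about 30%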;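 note: bluetongue infection of BSR cells; cell survival read as ATP light after 72 h; 0% = infected wells without compound and 100% = uninfected wells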
# Mtb H37Rv: M. tuberculosis H37Rv growth inhibitors, H37Rv strain (AID 1626) | one-dose inhibition, % at 10 µM; IC50 in µM for titrated hits | 220,000 compounds, 0.95% hits | M. tuberculosis H37Rv growth inhibition; higher % means a stronger effect;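 active = confirmed in a dose series; inconclusive = inhibition above 80% but not taken into the dose series; inactive = below 80% or under 30% at every dose of the series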;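 note: bacteria incubated seven days before Alamar blue readout; 0% = bacteria only wells and 100% = bacteria with antibiotic wells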
# Mtb betalactam: beta-lactam sensitization of Mtb H37Rv; inhibition, % at 25 µM; AID 434955; M. tuberculosis H37Rv growth with meropenem, percent inhibition; hits of this screen are not shown here; 330,000 compounds, 0.27% hits;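 active = about 74% or more and at least 40 points above the plate without the antibiotic, then above 30% in a dose series; inconclusive = first-round hits that could not be retested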;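 note: growth measured after seven days incubation then overnight dye step; 0% = bacteria only wells and 100% = bacteria with antibiotic; twin plates without the antibiotic show which effects depend on it; some results filed as inactive read as strong as hits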
# YopH inh: YopH (Yersinia) phosphatase inhibition; fluorescence Ex485/Em525; inhibition, %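 (about 10 µM by stock and volumes)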; 140,000 compounds, 0.16% hits; AID 898;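 active = inhibition of 50% or more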;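 note: controls were vehicle for no effect and minimum signal wells for full effect; inactives centre near -20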
# RecA splice inh: inhibitors of M. tuberculosis RecA intein splicing; P9WHJ3; cell-free RecA intein splicing, fluorescence; inhibition, %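 (about 9 µM by stock and volumes)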; 290,000 compounds, 0.75% hits; AID 2221; in the data active = inhibition above about 30%; inconclusive = no clear call, values can overlap the other calls;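 note: 0% = vehicle wells and 100% = reference inhibitor control wells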
# Target sequence (P9WHJ3 whole entry, looked up, canonical isoform): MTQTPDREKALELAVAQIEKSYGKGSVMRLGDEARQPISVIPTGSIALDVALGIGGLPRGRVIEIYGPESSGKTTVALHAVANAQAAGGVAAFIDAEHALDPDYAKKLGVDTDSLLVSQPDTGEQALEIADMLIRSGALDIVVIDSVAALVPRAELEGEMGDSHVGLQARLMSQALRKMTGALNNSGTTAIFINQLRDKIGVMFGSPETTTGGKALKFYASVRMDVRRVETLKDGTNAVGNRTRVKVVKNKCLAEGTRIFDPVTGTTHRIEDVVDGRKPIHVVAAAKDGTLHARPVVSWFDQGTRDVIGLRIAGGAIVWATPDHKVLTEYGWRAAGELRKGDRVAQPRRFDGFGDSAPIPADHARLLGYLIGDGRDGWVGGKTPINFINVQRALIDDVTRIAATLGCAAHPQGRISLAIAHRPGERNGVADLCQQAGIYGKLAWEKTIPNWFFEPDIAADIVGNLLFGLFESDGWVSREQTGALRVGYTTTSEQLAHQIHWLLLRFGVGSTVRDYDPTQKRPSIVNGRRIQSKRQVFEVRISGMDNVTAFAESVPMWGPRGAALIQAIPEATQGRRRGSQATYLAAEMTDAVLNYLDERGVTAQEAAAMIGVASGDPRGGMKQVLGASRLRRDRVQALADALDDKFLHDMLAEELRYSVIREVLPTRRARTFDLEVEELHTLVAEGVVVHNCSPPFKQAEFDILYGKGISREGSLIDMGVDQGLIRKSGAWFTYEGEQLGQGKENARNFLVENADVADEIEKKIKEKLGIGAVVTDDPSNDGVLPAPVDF
# Arbovirus anti repeat: also measured in Arbovirus anti; calls as there; inhibition, %; measured here: 10K subset replicate screen; many hits read low in the repeat;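 first of two repeat runs on a subset; 0% = infected and 100% = uninfected wells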
# Active calls of the source: *; i = inactive; ? = inconclusive; / = no result given.
SMILES,Arbovirus anti,Mtb H37Rv,Mtb betalactam,YopH inh,RecA splice inh,others
CC(C)C(C(=O)OCC(=O)c1ccccc1)N1C(=O)C2C3C=CC(C3)C2C1=O (stereo not given),3,3%,9,/,-0.8,
CCOC(=O)c1ccc(NC(=S)N(CCCN2CCN(CC)CC2)Cc2cccs2)cc1,-8,62%,-8,/,0.7,
Cn1cc(C(=O)NCC2COc3ccccc3O2)c(=O)c2cc(S(=O)(=O)N3CCCCC3)ccc21 (stereo not given),-1,-1%,-6,5,2.5,
COc1ccc(O)c(CN2CCN(C/C=C/c3ccccc3)CC2)c1,9,-2%,-8,-39,-0.8,
CCOc1ccc(-n2c(-c3ccoc3)nc3ccccc3c2=O)cc1,2,-2%,0,23,1.1,
CN(C)CCNC(=O)Nc1ccc(Cl)c(Cl)c1,0,1%,-5,18,0.4,
COc1cccc2c1OC1(C)CC2NC(=O)N1Cc1ccccc1 (stereo not given),-2,-6%,0,-36,/,
COC(=O)c1ccc(NS(=O)(=O)c2ccc3c(c2)n(C)c(=O)n3C)cc1,/,/,3,/,-3.1,
COc1ccc(C(=O)Nc2nncs2)cc1S(=O)(=O)N1CC(c2ccccc2)CC1=O (stereo not given),16,13%,0,-45,-0.5,Arbovirus anti repeat=1
CC(=O)Nc1c(C(=O)O)[nH]c2ccccc12,9,-5%,-4,-24,0.6,
COc1ccc(-n2c(SCC(=O)Nc3nccs3)nnc2-c2ccoc2C)cc1,11,8%,-9,-8,-1.4,
Oc1c(C(Nc2nc3ccccc3s2)c2ccco2)ccc2cccnc12 (stereo not given),-20,11%,7,-24,-3.2,
CCCCc1ccc(-c2csc(/C(C#N)=C\c3ccco3)n2)cc1,7,24%,34,-42,9.0,
COc1ccc2c(c1OC)C(=O)N(c1cccc(C)c1)C2=O,-1,-10%,-6,-15,0.7,
Cc1c(O)ccc(NS(=O)(=O)c2ccccc2)c1C,-5,-5%,3,/,-4.9,
O=c1[nH]nc(-c2ccc(F)cc2)cc1Cc1ccc(F)cc1,/,1%,-7,/,-0.7,
Cc1cc(C(F)(F)F)nn1Cc1n[nH]c(=S)n1-c1ccc(F)cc1,-7,1%,-5,-24,2.2,
O=C(CN1CCN(Cc2ccccc2)CC1)NCc1ccccc1Cl,/,/,4,/,0.1,
CC(=O)Oc1cccc(N2C(=O)C3C(C2=O)C2C=CC3C23CC3)c1 (stereo not given),0,-17%,-5,-26,2.1,Arbovirus anti repeat=1
CNCC(O)Cn1c2c(c3ccccc31)CCCC2 (stereo not given),8,0%,1,/,-2.6,
O=C1OCC2=C1C(c1ccc(F)cc1)CC(=O)N2c1ccc(F)cc1 (stereo not given),8,0%,-2,/,-5.9,
Cc1ccccc1NC(=O)CSc1nnc2ccc(-c3ccncc3)nn12,/,/,-6,/,-1.9,
O=C(NCCN1CCOCC1)c1ccc2c(c1)N(Cc1ccccc1F)C(=O)CS2,2,/,-2,6,0.4,Arbovirus anti repeat=6
Cc1cc(C)c2nc(SCC(=O)N3CCCCC3)c(C#N)cc2c1,-2,-6%,/,-43,-4.6,
N#Cc1c(NC(=O)c2cnccn2)sc2c1CCCC2,-26,9%,67,-24,0.3,
Cc1ccc(OCCC(=O)OCC(=O)Nc2ccc3[nH]c(=O)[nH]c3c2)cc1,/,/,5,/,-1.3,
O=C(NCCN1CCOC1=O)C1CCC(=O)N(CCc2ccc(Cl)cc2)C1 (stereo not given),/,/,?,/,2.2,
Cc1ccc(Cn2c(=N)n(CC(=O)c3ccc([N+](=O)[O-])cc3)c3ccccc32)cc1,-13,12%,8,-31,-4.9,
Cc1cccc(-n2cc(-c3ccccc3)[nH]c2=S)c1,/,/,-4,/,3.7,
Fc1ccc(C2CCCN2Cc2nc(Cc3ccccc3)no2)cc1 (stereo not given),-4,2%,-2,/,-6.1,

# 4 neighbouring records already listed, quoted:
SMILES,Arbovirus anti,Mtb H37Rv,Mtb betalactam,YopH inh,RecA splice inh,others
CC(C)C(C(=O)OCC(=O)c1ccccc1)N1C(=O)C2C3C=CC(C3)C2C1=O (stereo not given),3,3%,9,/,-0.8,
CCOC(=O)c1ccc(NC(=S)N(CCCN2CCN(CC)CC2)Cc2cccs2)cc1,-8,62%,-8,/,0.7,
Cn1cc(C(=O)NCC2COc3ccccc3O2)c(=O)c2cc(S(=O)(=O)N3CCCCC3)ccc21 (stereo not given),-1,-1%,-6,5,2.5,
COc1ccc(O)c(CN2CCN(C/C=C/c3ccccc3)CC2)c1,9,-2%,-8,-39,-0.8,

# More compounds follow:
SMILES,Arbovirus anti,Mtb H37Rv,Mtb betalactam,YopH inh,RecA splice inh,others
CCOC(=O)c1ccc(NC(=O)CSc2nnc(COc3ccccc3OC)n2CC)cc1,-7,6%,1,-6,-2.0,
Cc1cc2nc(C3CCCN(C(=S)Nc4ccccc4)C3)[nH]c2cc1C (stereo not given),4,11%,0,-31,-4.0,
O=S(=O)(Nc1nc2ccccc2nc1Nc1ccc2c(c1)OCO2)c1ccc(F)cc1,5,48%,1,-19,-0.8,
COc1ccc(-c2cccc(NS(=O)(=O)c3cccc([N+](=O)[O-])c3)c2)nn1,/,/,3,/,-1.6,
CNC(=O)COc1ccc(S(=O)(=O)N2CCCC2)cc1,/,/,-1,/,-0.4,
Cc1ccc(C2CC(=O)NC(SCC(=O)OCc3ccccc3)=C2C#N)o1 (stereo not given),-22,9%,-2,-4,3.6,
O=c1oc2cc(O)ccc2cc1-c1ccc(F)cc1,-8,79%,91,-2,i,
O=C(Oc1ccc2c3c(c(=O)oc2c1)CCCC3)c1cccs1,-1,65%,86,-14,8.1,
CCC(C)NC(=O)Cc1c(OC)ccc2cc(Br)ccc12 (stereo not given),2,-1%,5,/,0.1,
COc1ccc(C(=O)Oc2ccc(C(=S)N3CCCC3)cc2)cc1OC,-2,-7%,-8,-23,-0.9,
COc1ccccc1-c1ccc(NC2CCCC2)nn1,-3,9%,23,2,3.2,
Cn1c(SCC(=O)N2CCCC2=O)nnc1-c1ccccc1F,6,-8%,-10,/,3.0,
Cc1cc(C(=O)CSc2nnc(-c3cccnc3)n2-c2ccccc2)c(C)n1CC1CCCO1 (stereo not given),-4,-5%,9,7,2.1,
O=C(O)CCNC(=O)COc1ccc2c3c(c(=O)oc2c1)CCCC3,/,/,1,/,-2.7,
O=C(Nc1ccc(N2CCOCC2)c(Cl)c1)c1c(F)c(F)c(F)c(F)c1F,-12,2%,99,-25,5.3,

# Filtered by structure, the compounds so far with two or more sulfur atoms.
SMILES,Arbovirus anti,Mtb H37Rv,Mtb betalactam,YopH inh,RecA splice inh,others
CCOC(=O)c1ccc(NC(=S)N(CCCN2CCN(CC)CC2)Cc2cccs2)cc1,-8,62%,-8,/,0.7,
COc1ccc(C(=O)Nc2nncs2)cc1S(=O)(=O)N1CC(c2ccccc2)CC1=O (stereo not given),16,13%,0,-45,-0.5,Arbovirus anti repeat=1
COc1ccc(-n2c(SCC(=O)Nc3nccs3)nnc2-c2ccoc2C)cc1,11,8%,-9,-8,-1.4,

# (cont.)
SMILES,Arbovirus anti,Mtb H37Rv,Mtb betalactam,YopH inh,RecA splice inh,others
CCOC(=O)c1cccc(NC(=S)NCc2ccc(C)cc2)c1,-7,2%,-1,/,0.0,
COc1ccccc1NC(=O)Nc1nc(CC(=O)NC2CCCC2)cs1,/,/,1,/,-1.7,
Cn1cnnc1Sc1ccc(/C=C(\CCC(=O)O)c2nc3ccccc3s2)cc1[N+](=O)[O-],19,0%,-4,/,1.3,
CC(C)C[C@H](NC(=O)[C@H](Cc1ccccc1)n1c(=O)[nH]c2ccccc2c1=O)C(=O)N1CCC[C@H]1C(=O)O,/,/,0,/,-2.8,
COc1ccc2[nH]c(C)c(CCN3CCC(=O)C(C)C3C)c2c1 (stereo not given),0,8%,-2,/,0.1,Arbovirus anti repeat=-3
NC(=O)CCc1c[nH]c2ccccc12,3,5%,-4,-58,1.9,Arbovirus anti repeat=3
COc1ccc(NC(=O)CSc2nc3ccccc3c(=O)n2CCNC(C)=O)cc1,12,-4%,-5,-40,-2.2,
Nc1[nH]ncc1N=Nc1ccc(Cl)cc1,-11,?,?,0,2.2,
COc1ccccc1C1CCN(Cc2ccc(Cl)cc2Cl)CC1,/,/,8,/,10,
Cc1ccc(-c2cc(=O)[nH]c3ccccc23)cc1,/,10%,10,-43,0.9,
Cc1ccccc1Cn1nnc(-c2ccc(F)cc2)n1,/,/,0,/,5.4,
Cc1ncc(/C=C2\C(=O)Nc3ccccc32)[nH]1,/,-2%,-4,/,0.2,
NS(=O)(=O)c1ccc(NC(=O)COC(=O)c2ccc([N+](=O)[O-])s2)cc1,/,0%,-3,/,-2.5,
CC(=O)c1cccn1S(=O)(=O)c1ccccc1,/,/,-4,/,-1.7,
CCOc1ccccc1NC(=O)NC1(C(=O)NCc2cccnc2)CCCCC1,/,/,-2,/,-0.4,
O=C(CCN1CCOCC1)Nc1ccccc1,-3,-4%,-4,-58,1.7,
Cc1ccc(-n2nnnc2SCC(=O)N2CCCCC2)cc1,5,-1%,0,3,1.5,
Cc1csc(Sc2ccc([N+](=O)[O-])cc2C(=O)OCC(=O)NC2CCCC(C)C2C)n1 (stereo not given),5,4%,-1,-34,0.4,
CCn1c(SCC(=O)Nc2cc(C)on2)nnc1-c1c[nH]c2ccccc12,5,-1%,-5,/,-5.2,
Cc1ccccc1NC(=O)Nc1cccs1,-10,-1%,22,-13,2.2,
CC1=C(C)[N+](=O)C2(O)CCCCC2(C)N1[O-] (stereo not given),9,-13%,-4,-30,-2.3,
CCCCCN(C(=O)CCC(=O)OCC(=O)c1cccc(OC)c1)c1c(N)n(CCCC)c(=O)[nH]c1=O,/,/,2,/,1.4,
CCN(CC(=O)Nc1c(F)cccc1F)C(=O)CCSc1ccc(F)cc1,/,/,-2,/,-0.4,
CC1(C)CC(=O)C=C(NCC(=O)O)C1,0,-6%,-3,-43,-3.4,
CC(=O)C1=C(O)C(=O)N(c2ccc(Br)cc2)C1c1cccc(F)c1 (stereo not given),/,/,4,/,-0.3,
O=C(NNC(=O)C1CCCCC1)c1ccncc1,/,/,-5,/,-1.0,
Cc1[nH]n(C(N)=S)c(=O)c1N=Nc1ccc2ccccc2c1,-6,?,/,/,14,
CN(C)c1nc(SCc2ccccc2)nc(N2CCOCC2)n1,5,3%,2,-17,4.2,
COC(=O)Cn1cc(/C=C/[N+](=O)[O-])c2ccccc21,11,3%,-3,/,0.3,
Cc1ccccc1OCCC(=O)Nc1cccc(S(=O)(=O)Nc2ccccc2Cl)c1,17,9%,-2,-16,14,
CC(C)Cn1c(-c2ccco2)n[nH]c1=S,2,3%,15,-66,-1.4,
COc1cccc(OC)c1OCCCN1CCC(Cc2ccccc2)CC1,/,/,1,/,0.0,
CC(C)c1nnc(SCC(=O)Nc2ccc3c(c2)OCCO3)n1C,/,/,2,/,-3.9,
CCCCN(C)C(=O)c1coc(=O)c2ccccc12,-1,-4%,-5,1,-0.2,
O=C(O)CCCN1C(=O)c2ccccc2Sc2ncccc21,/,/,-5,/,-0.1,
Cc1cccc(N2CCN(C3CCCCC3NS(=O)(=O)c3ccccc3)CC2C)c1 (stereo not given),/,/,-7,/,0.6,
COc1ccc(-c2nsc(SCC(=O)Nc3ccc4c(c3)OCO4)n2)cc1,-5,?,5,-10,0.8,
C=CCn1c(SCCCCCC)nc(O)cc1=O,1,-8%,1,-21,/,
CCOc1cc(N2CCOCC2)c(OCC)cc1NC(=O)Cn1nc(C)c([N+](=O)[O-])c1C,/,/,5,/,-10,
CCC(C)c1ccc(S(=O)(=O)N2CCN(c3ccccn3)CC2)cc1 (stereo not given),/,/,10,/,2.6,
CCN1CCN(c2ccc([N+](=O)[O-])cc2C=C2C(=O)NC(=O)NC2=O)CC1,12,3%,-1,-17,1.0,
FC(F)(F)c1nc2cc3nc4ccccc4[nH]c3cc2n1,/,?,93,/,6.5,
O=S(=O)(/C=C/c1ccccc1)N1CCN(c2ccc(F)cc2)CC1,10,1%,-6,-29,7.8,
O=C(CN1CCCCCC1)N1c2ccccc2Sc2ccccc21,-11,9%,-7,/,-0.1,
COc1cc2c(cc1OC)C(c1ccncc1)CC(=O)N2 (stereo not given),5,-2%,-11,10,-0.8,
O=S(=O)(NC1CCCCC1N1CCN(c2cccc(Cl)c2)CC1)c1ccccc1 (stereo not given),/,/,19,/,6.2,
CC(C)CC(COCc1cccc(Cl)c1)N1CCN(C(=O)c2cccc(C(F)(F)F)c2)CCC1=O (stereo not given),-24,1%,-10,-2,11,
COc1cccc(NC(=O)c2cc3ccccc3cc2OC)c1,/,/,21,/,0.7,
O=S1(=O)CCN2C=C(Br)C=C(Br)C2=N1,7,0%,-13,-52,-0.1,
COc1ccccc1N1CCN(c2ccc([N+](=O)[O-])cn2)CC1,/,/,6,/,2.6,
O=C1C2ON(c3ccccc3)C(c3ccncc3)C2C(=O)N1c1ccc(Br)cc1 (stereo not given),0,-6%,-11,-29,0.8,

# An excerpt (hit frequency here may not be typical).
